Screening results (PubChem)
NOMO-1 viab – STK33 inhibitor candidate reducing NOMO-1 cell viability; NOMO-1 AML viability, CellTiter-Glo luminescence, 72 h; inhibition, % (test concentration not listed); actives 7.5% (n = 37,000); AID 2330;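 active means most replicates above 80%; inconclusive means exactly half above 80%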;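 further: wells of about 30 µL received 25 nL stock; 0% = median of vehicle wells and 100% = reference inhibitor level; the first replicate is given; inactives centre near 10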
The depositor's hits bear a star; ? = inconclusive. An excerpt; rates above refer to the full screens.

SMILES	NOMO-1 viab
COc1ccc(OC)c(NC(=O)c2c(NC(=O)CN3CCCC(C)C3)sc3c2CCC3)c1 (stereo unspecified)	16
O=C(Nc1ccc(S(=O)(=O)NC23CC4CC(CC(C4)C2)C3)cc1)C1CC1	33
Cc1cc(C)c(NC(=O)CN(c2cc(Cl)cc(Cl)c2)S(C)(=O)=O)c(C)c1	18
O=C(O)c1cc2cc(F)ccc2[nH]1	8
Cc1ccccc1NC(=O)CSc1nc2cc3ccccc3cc2[nH]1	115*
C[C@H]1CN([C@@H](C)CO)C(=O)c2cccc(NS(=O)(=O)c3ccccc3)c2O[C@H]1CN(C)S(=O)(=O)c1ccccc1	-3
C[C@H]1CN([C@@H](C)CO)C(=O)c2cccc(NC(=O)CCCCCC(=O)Nc3ccccc3N)c2O[C@@H]1CN(C)Cc1ccc2c(c1)OCO2	121*
C[C@@H]1CN([C@@H](C)CO)C(=O)c2cccc(NS(C)(=O)=O)c2O[C@@H]1CN(C)C(=O)Nc1cccc2ccccc12	8
Cc1cc(N(CC(=O)Nc2ccc(C(F)(F)F)cc2)S(C)(=O)=O)ccc1Br	?
C[C@H](CO)N1C[C@H](C)[C@H](CN(C)S(=O)(=O)c2cn(C)cn2)Oc2c(NC(=O)NC3CCCCC3)cccc2C1=O	-2
Cc1ccc(S(=O)(=O)Nc2ccc3c(c2)C(=O)N([C@H](C)CO)C[C@@H](C)[C@@H](CN(C)C(=O)Nc2c(C)noc2C)O3)cc1	16
COc1ccc(CN(C)C[C@H]2Oc3c(NS(=O)(=O)c4ccc(F)cc4)cccc3C(=O)N([C@H](C)CO)C[C@@H]2C)cc1	-4

Arranged by number of heavy atoms (high to low): part of the list above
SMILES	NOMO-1 viab
C[C@H]1CN([C@@H](C)CO)C(=O)c2cccc(NC(=O)CCCCCC(=O)Nc3ccccc3N)c2O[C@@H]1CN(C)Cc1ccc2c(c1)OCO2	121*
Cc1ccc(S(=O)(=O)Nc2ccc3c(c2)C(=O)N([C@H](C)CO)C[C@@H](C)[C@@H](CN(C)C(=O)Nc2c(C)noc2C)O3)cc1	16
O=C(O)c1cc2cc(F)ccc2[nH]1	8

Following part.
SMILES	NOMO-1 viab
COC(=O)c1cc(OC)c(OC)cc1NC(=O)CCN1C(=O)c2ccccc2C1=O	25
COc1ccc(NC(=O)N(C)C[C@H]2Oc3c(NC(=O)C4CC4)cccc3C(=O)N([C@H](C)CO)C[C@H]2C)cc1	-1
COc1ccc(NC(=O)CN(c2ccc(Cl)cc2)S(C)(=O)=O)cc1Cl	16
COc1ccc(S(=O)(=O)Nc2ccc3c(c2)CC(=O)N([C@@H](C)CO)C[C@@H](C)[C@@H](CN(C)Cc2ccc(C(F)(F)F)cc2)O3)cc1	95*
Cc1cccc(NC(=O)C(C)NS(=O)(=O)c2ccccc2)c1 (stereo unspecified)	-1
C[C@@H]1CN([C@H](C)CO)C(=O)Cc2cc(NS(=O)(=O)c3ccccc3)ccc2O[C@H]1CN(C)C(=O)Nc1ccccc1	8
Cc1cc(C(=O)Nc2cccc3c2O[C@H](CN(C)Cc2ccc(Oc4ccccc4)cc2)[C@@H](C)CN([C@@H](C)CO)C3=O)n(C)n1	70
Cc1noc(C)c1S(=O)(=O)Nc1ccc2c(c1)CC(=O)N([C@H](C)CO)C[C@H](C)[C@H](CN(C)S(=O)(=O)c1cn(C)cn1)O2	-4
COc1ccc(NC(=O)N(C)C[C@H]2Oc3ccc(NC(=O)CCN4CCOCC4)cc3CC(=O)N([C@@H](C)CO)C[C@@H]2C)cc1	-14
COC(=O)c1ccccc1NC(=O)c1ccc(COc2ccccc2)o1	9
C[C@H](CO)N1C[C@H](C)[C@H](CN(C)Cc2ccc(C(=O)O)cc2)Oc2ccc(NC(=O)CCN3CCOCC3)cc2C1=O	5
C[C@@H]1CN([C@@H](C)CO)C(=O)c2cccc(NC(=O)Nc3ccc4c(c3)OCO4)c2O[C@@H]1CN(C)C(=O)NC1CCCCC1	19
Cc1cc(C)c(NC(=O)CSc2nnc(-c3ccncc3)n2-c2ccccc2)c([N+](=O)[O-])c1	19
CCn1c(SCC(=O)Nc2cccc(F)c2)nnc1-c1ccc(Cl)cc1Cl	27
C[C@@H]1CN([C@H](C)CO)C(=O)c2cccc(NC(=O)c3ccncc3)c2O[C@H]1CN(C)Cc1ccc(C(=O)O)cc1	9
C[C@H](CO)N1C[C@H](C)[C@H](CN(C)Cc2ccc(C(=O)O)cc2)Oc2ccc(NC(=O)Nc3ccc(F)cc3)cc2C1=O	-33
C[C@@H]1CN([C@@H](C)CO)C(=O)Cc2cc(NC(=O)C3CCCCC3)ccc2O[C@@H]1CN(C)Cc1ccncc1	16
CN(C)CCN1C(=O)c2ccccc2N(C)c2ccccc21	12
C[C@@H]1CN([C@H](C)CO)C(=O)c2cc(NS(=O)(=O)c3ccc(F)cc3)ccc2O[C@H]1CN(C)C(=O)Nc1ccc(F)cc1	4
NC(=NC(=O)CCn1c(=O)oc2ccccc21)c1ccc(C(F)(F)F)cc1	27
O=C(Nc1sc2c(c1C(=O)NCc1ccco1)CCCC2)c1sc2ccccc2c1Cl	70
C[C@@H]1CN([C@@H](C)CO)C(=O)c2cc(NS(C)(=O)=O)ccc2O[C@@H]1CN(C)Cc1ccc(-c2ccccc2)cc1	42
C[C@H]1CN([C@@H](C)CO)C(=O)c2cc(NC(=O)Nc3cccc4ccccc34)ccc2O[C@H]1CN(C)S(C)(=O)=O	-9
C[C@@H]1CN([C@H](C)CO)C(=O)c2cc(NS(=O)(=O)c3ccc(F)cc3)ccc2O[C@H]1CN(C)C(=O)Nc1ccccc1	15
C[C@@H]1CCCCO[C@H](CN(C)C(=O)C2CCCCC2)[C@@H](C)CN([C@H](C)CO)C(=O)c2cc(NC(=O)c3ccncc3)ccc2O1	3
Cn1c(SCC(=O)Nc2ccc(Cl)cc2Cl)nnc1-c1ccc(Cl)cc1	10
CC(C)NC(=O)N(C)C[C@H]1Oc2ccc(NC(=O)Nc3ccc4c(c3)OCO4)cc2C(=O)N([C@@H](C)CO)C[C@@H]1C	-9
C[C@H]1CN([C@@H](C)CO)C(=O)Cc2cc(NC(=O)Nc3cccc4ccccc34)ccc2O[C@@H]1CN(C)Cc1ccc(Oc2ccccc2)cc1	116*
CN(C)Cc1nc(-c2cn(C)c3ccccc23)no1	-2
Cc1ccc(S(=O)(=O)N(C)C[C@H]2Oc3ccc(NC(=O)Cc4ccccc4)cc3CC(=O)N([C@@H](C)CO)C[C@@H]2C)cc1	10
O=C(Nc1cc(-c2ccc(Cl)cc2)[nH]n1)C1Cc2ccccc2C1	14
COc1ccc(-c2cc(=O)c3c(O)cc(O)c(-c4cc(-c5cc(=O)c6c(O)cc(O)cc6o5)ccc4OC)c3o2)cc1	11
O=C(O)C1CC=CCC1C(=O)Nc1ccc(S(=O)(=O)N2CCCc3ccccc32)cc1 (stereo unspecified)	-26
CC(=O)N1c2ccccc2C(C)(c2ccccc2)CC1(C)C (stereo unspecified)	?
N#Cc1c(-c2ccccc2)cc(-c2ccccc2)nc1N	25
Cc1ccc(S(=O)(=O)Nc2ccc3c(c2)C(=O)N([C@H](C)CO)C[C@H](C)[C@@H](CN(C)CC2CCCCC2)OCCCC[C@@H](C)O3)cc1	45

No new results follow: entries from further up.
SMILES	NOMO-1 viab
Cc1ccc(S(=O)(=O)N(C)C[C@H]2Oc3ccc(NC(=O)Cc4ccccc4)cc3CC(=O)N([C@@H](C)CO)C[C@@H]2C)cc1	10
O=C(Nc1cc(-c2ccc(Cl)cc2)[nH]n1)C1Cc2ccccc2C1	14
COc1ccc(-c2cc(=O)c3c(O)cc(O)c(-c4cc(-c5cc(=O)c6c(O)cc(O)cc6o5)ccc4OC)c3o2)cc1	11
O=C(O)C1CC=CCC1C(=O)Nc1ccc(S(=O)(=O)N2CCCc3ccccc32)cc1 (stereo unspecified)	-26
CC(=O)N1c2ccccc2C(C)(c2ccccc2)CC1(C)C (stereo unspecified)	?
N#Cc1c(-c2ccccc2)cc(-c2ccccc2)nc1N	25
Cc1ccc(S(=O)(=O)Nc2ccc3c(c2)C(=O)N([C@H](C)CO)C[C@H](C)[C@@H](CN(C)CC2CCCCC2)OCCCC[C@@H](C)O3)cc1	45

More entries.
SMILES	NOMO-1 viab
C[C@H]1CN([C@@H](C)CO)C(=O)c2cc(NC(=O)C3CC3)ccc2O[C@H]1CN(C)C(=O)Nc1ccc(C(F)(F)F)cc1	17
C[C@H]1CN([C@@H](C)CO)C(=O)Cc2cc(NS(C)(=O)=O)ccc2O[C@H]1CN(C)C(=O)Nc1ccccc1	10
CSc1nc(N)nc(SCCS(=O)(=O)c2ccc(Cl)cc2)c1C#N	36
C[C@@H]1CN([C@H](C)CO)C(=O)c2cccc(NC(=O)NC3CCCCC3)c2O[C@H]1CN(C)Cc1ccc(Cl)c(Cl)c1	25
C[C@@H]1CN([C@H](C)CO)C(=O)c2cc(NC(=O)Nc3ccccc3)ccc2O[C@H]1CN(C)Cc1ccncc1	1
C[C@@H]1CN([C@H](C)CO)C(=O)Cc2cc(NC(=O)c3ccncc3)ccc2O[C@@H]1CN(C)C(=O)Nc1ccc2c(c1)OCO2	6
Cc1ccc(NC(=O)CSc2nncc3ccccc23)cc1	2
COc1ccc(CN(C)C[C@H]2Oc3c(NS(=O)(=O)c4cn(C)cn4)cccc3C(=O)N([C@H](C)CO)C[C@H]2C)cc1	-4
C/C=C(/C)C(=O)O[C@H]1C=C(C)C[C@H](OC(=O)c2ccc(O)cc2)C2[C@](O)(C(C)C)CC[C@@]21C (stereo partly specified)	122*
COc1ccc(C)cc1NC(=O)CN(c1ccc(I)cc1)S(C)(=O)=O	26
Cc1noc(C)c1NC(=O)N(C)C[C@@H]1Oc2c(NS(=O)(=O)c3c(C)noc3C)cccc2C(=O)N([C@H](C)CO)C[C@@H]1C	-5
CC(C)Cc1c(O)nc(SCC(=O)NC(C)(C)C)[nH]c1=O	-5
CC(C)(C)NS(=O)(=O)c1ccc(NC(=O)CSc2nc3ccccc3s2)cc1	15
COC(=O)c1ccccc1S(=O)(=O)/C(C#N)=C/Nc1nc(SC)nc(C2CC2)n1	14
O=C1c2oc3ccccc3c(=O)c2C(c2cccc(Oc3ccccc3)c2)N1CCCO (stereo unspecified)	8
C[C@H]1CN([C@@H](C)CO)C(=O)Cc2cc(NS(=O)(=O)c3cn(C)cn3)ccc2O[C@@H]1CN(C)S(=O)(=O)c1cn(C)cn1	5
COc1ccc(SC(=O)c2cc(C)n(Cc3c(Cl)cccc3Cl)n2)cc1	0
C[C@@H]1CN([C@@H](C)CO)C(=O)Cc2cc(NC(=O)CCCCCC(=O)Nc3ccccc3N)ccc2O[C@@H]1CN(C)Cc1ccc(Oc2ccccc2)cc1	140*
Cc1cc(NC(=O)CCSc2nc(-c3ccco3)cc(C(F)(F)F)n2)n(-c2ccccc2)n1	2
C[C@@H]1CN([C@@H](C)CO)C(=O)c2cccc(NS(C)(=O)=O)c2O[C@H]1CN(C)S(=O)(=O)c1ccccc1	0
C[C@H](CO)N1C[C@H](C)[C@H](CN(C)S(=O)(=O)c2ccccc2)Oc2c(NS(C)(=O)=O)cccc2C1=O	25
CC(C)NC(=O)Nc1ccc2c(c1)CC(=O)N([C@@H](C)CO)C[C@H](C)[C@@H](CN(C)Cc1ccc(Cl)c(Cl)c1)O2	-2
COC(=O)c1cc(NC(=O)COc2ccccc2OC)cc(C(=O)OC)c1	36
N#Cc1c(-c2ccc(Cl)cc2)[nH]c(SCc2ccccc2)nc1=S	11
CC(=O)Nc1ccc(Br)cc1-c1nc2ccccc2nc1OCc1ccc(Cl)cc1	6
Cc1ccc(S(=O)(=O)Nc2ccc3c(c2)C(=O)N([C@@H](C)CO)C[C@H](C)[C@H](CN(C)S(=O)(=O)c2ccccc2)O3)cc1	23
CCOC(=O)c1cnc2c(OC)cccc2c1N1CCC2(CC1)OCCO2	39
CC(C)NS(=O)(=O)c1ccc(OCC(=O)N2CCOCC2)cc1	13
O=C(CSc1nc(-c2ccccc2)cc(=O)[nH]1)Nc1ccccc1	20
CCCc1cc(=O)n2[nH]c(NCc3cccc([N+](=O)[O-])c3)nc2n1	-7
O=S(=O)(Cc1ccc(Cl)cc1)C1CCCCC1O (stereo unspecified)	-5
C[C@H]1CN([C@@H](C)CO)C(=O)c2cccc(NC(=O)C3CCOCC3)c2O[C@H]1CN(C)S(=O)(=O)c1ccccc1	-12
C[C@H]1CN([C@@H](C)CO)C(=O)c2cc(NC(=O)Cc3cn(C)c4ccccc34)ccc2O[C@@H]1CN(C)Cc1ccncc1	96*
C[C@H](CO)N1C[C@H](C)[C@H](CN(C)Cc2ccncc2)Oc2ccc(NC(=O)C3CCCCC3)cc2C1=O	6
COc1cc(-c2nnc(SCC(=O)c3ccccc3)n2-c2ccccc2)cc(OC)c1OC	42
COc1ccc2c(c1)C(=O)CC(c1ccccc1)O2 (stereo unspecified)	-7
CC(C)NC(=O)Nc1cccc2c1O[C@H](CN(C)C(=O)NC(C)C)[C@H](C)CN([C@@H](C)CO)C2=O	-10
CC(C)NC(=O)Nc1cccc2c1O[C@@H](CN(C)Cc1ccc3c(c1)OCO3)[C@@H](C)CN([C@@H](C)CO)C2=O	11
CC(C)NC(=O)Nc1ccc2c(c1)C(=O)N([C@H](C)CO)C[C@H](C)[C@H](CN(C)CC1CCCCC1)O2	16
Cc1cc(C)nc(SCC(=O)c2cc(C(C)(C)C)c(O)c(C(C)(C)C)c2)n1	35
CC(NS(=O)(=O)c1ccc(F)cc1)C(=O)Nc1ccc(I)cc1 (stereo unspecified)	-20
Cc1ccc(-n2nc3ccc(NC(=O)COc4cccc(C)c4)cc3n2)cc1	30
O=C(CSc1ncn(-c2ccccc2)n1)Nc1ccc(Cl)cc1	3
Cc1ccc(Cl)cc1NC(=O)CN(c1cccc(Cl)c1C)S(C)(=O)=O	48
COc1ccc(NC(=O)CN2CCN(S(=O)(=O)c3c(C)cc(C)cc3C)CC2)cc1	13
Clc1ccccc1OCCSc1nnc(-c2cccnc2)n1-c1ccccc1	35
C[C@H]1CN([C@@H](C)CO)C(=O)Cc2cc(NS(C)(=O)=O)ccc2O[C@@H]1CN(C)Cc1ccncc1	-5
Cc1ccc(NC(=O)CN(c2ccc(F)c(Cl)c2)S(C)(=O)=O)c(C)c1	8
C[C@@H]1CCCCO[C@H](CN(C)C(=O)Cc2ccccc2)[C@@H](C)CN([C@H](C)CO)C(=O)c2cc(NC(=O)Nc3ccc(C(F)(F)F)cc3)ccc2O1	65
